Compound activity (PubChem BioAssay)
Six1-Eya2 blk = Six1/Eya2 interaction inhibition; activity change, % (concentration not given with the values); AlphaScreen GST-Six1/His-Eya2 binding, biochemical; active compounds read low; control for the full effect not named in the record; Q15475+O00167; actives 0.56% (n = 360,000); in the data active = activity change below about -65%; inconclusive = about -30% to -65%; inactive = above about -30%; further: on the % scale 0 is the no-effect control and ±100 the full control effect
Target sequence (O00167 whole entry, looked up): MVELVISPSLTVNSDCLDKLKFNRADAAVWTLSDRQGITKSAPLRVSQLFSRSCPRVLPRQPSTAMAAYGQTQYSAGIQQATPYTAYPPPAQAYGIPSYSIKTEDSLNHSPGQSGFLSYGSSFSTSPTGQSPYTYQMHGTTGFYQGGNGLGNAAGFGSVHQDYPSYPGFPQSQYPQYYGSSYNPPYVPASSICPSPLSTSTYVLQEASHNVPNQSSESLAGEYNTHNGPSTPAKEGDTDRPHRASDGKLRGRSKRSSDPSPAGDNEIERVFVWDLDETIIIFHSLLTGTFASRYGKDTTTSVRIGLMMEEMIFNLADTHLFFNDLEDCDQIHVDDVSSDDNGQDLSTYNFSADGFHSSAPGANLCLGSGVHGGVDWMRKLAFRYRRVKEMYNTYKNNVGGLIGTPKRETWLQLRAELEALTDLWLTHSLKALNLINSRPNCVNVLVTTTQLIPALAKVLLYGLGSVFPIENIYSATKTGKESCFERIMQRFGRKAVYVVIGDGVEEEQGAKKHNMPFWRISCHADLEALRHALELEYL
Target sequence (Q15475 whole entry, looked up): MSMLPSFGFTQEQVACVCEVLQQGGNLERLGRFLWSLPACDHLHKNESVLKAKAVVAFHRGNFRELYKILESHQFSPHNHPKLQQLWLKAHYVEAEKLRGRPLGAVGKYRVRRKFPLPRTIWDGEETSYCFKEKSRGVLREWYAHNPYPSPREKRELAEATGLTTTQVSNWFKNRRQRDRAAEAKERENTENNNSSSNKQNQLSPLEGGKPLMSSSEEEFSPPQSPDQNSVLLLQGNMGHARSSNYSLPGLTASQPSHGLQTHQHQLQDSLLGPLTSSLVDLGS
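AlphaScreen with GST-Six1 and His-Eya2 (5X mix: 250 nM and 500 nM), glutathione donor and nickel acceptor beads; buffer 50 mM Tris pH 8.0, 300 mM NaCl, 1 mM TCEP; 1 h at 37 C in the dark.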
TRPML1 ag = human mucolipin-1 channel agonism. Q9GZU1. actives 0.12% (n = 410,000). TRPML1-expressing cells, Ca2+ dye fluorescence, FDSS; host cell line not named in the record; reference of the full effect not given here. activation, % (concentration not given with the values); in the data active = activation above about 50%; inconclusive = about 30% to 50%; inactive = below about 30%; further: 0% is about no effect; the text of the record puts the active cut at 80%
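Calcium fluorescence on an FDSS kinetic reader gave the read-out. Tet-induced TRPML1-DL cells were plated overnight, dye-loaded (Ca8 with quencher, 45-90 min, room temperature, dark), then read 110 s after compound addition, and again 110 s after 4uM final 54-4 (EC80).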
CtBP-E1A inh = inhibitors of CtBP/E1A interaction. AlphaScreen GST-E1A/His-CtBP binding, 1536-well; active compounds read low; control for the full effect not named in the record. actives 0.49% (n = 340,000). AID 651724. activity change, % (no concentration beside the values); in the data active means activity change below about -65%; inconclusive means about -30% to -65%; inactive means above about -30%; further: on the % scale 0 is the no-effect control and ±100 the full control effect
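Homogeneous bead-based format: GST-tagged E1A captured on glutathione donor beads, His-tagged CtBP on nickel acceptor beads; compounds precede bead addition by 2 h at 37 °C.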
PINK1 expr mod = modulators of PINK1 expression. Potency, µM (doses to about 76.6 µM), for inactives: at the top dose activation (PINK1 increase), most hits filed as activators. PINK1 immunofluorescence, high-content cytometry, 24 h. actives 0.2% (n = 410,000); active = well fitted activation curve with a large enough effect; inconclusive = small, poorly fitted or top-dose-only effect; inactive = flat fitted curve, though single readings scatter; cell line not stated here;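 further: potency means the concentration at half of the fitted maximal effect; % of control where 0% means no effect; nearly all actives have a fitted effect of over 65% in size; a mitochondrial uncoupler was the plate control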
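PINK1 protein level read as immunofluorescence by microplate cytometer in a fixed, stained stable cell line after 24 h exposure to five compound concentrations, with CCCP as control.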
D2 potentiator = potentiates the human D2 dopamine receptor allosterically; P14416; DiscoveRx D2 beta-arrestin cells, luminescence, 90 min; 100% = 57 uM dopamine signal; potentiation, % (test concentration not listed); actives 0.23% (n = 360,000); active = potentiation of 50% or more; inconclusive = 30% to 50%; inactive = 30% or less;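 further: compound concentration not given in the record; tested on top of an EC20 dose of dopamine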
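PathHunter D2 cells, attached overnight at 37 deg C, received compound in DMSO plus dopamine at EC20 (50 nM final) for 90 min at 37 deg C. Beta-arrestin recruitment was read as luminescence after 1 h with detection reagent at ambient temperature.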
D2 agonist = agonists of human D2 dopamine receptor (beta-arrestin); DiscoveRx PathHunter D2 beta-arrestin, luminescence, 90 min; 100% = 57 uM dopamine signal; activation, % (no concentration beside the values); AID 624465; actives 0.084% (n = 360,000); in the data active = activation above about 40%; inconclusive = about 15% to 40%; inactive = below about 15%; further: compound concentration not given in the record; the text of the record calls up to 30% inactive
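Agonist mode: compounds alone added to overnight-plated D2 PathHunter cells for 90 min at 37 C, with 57 uM final dopamine (EC100) defining full response. Beta-arrestin recruitment detected by chemiluminescent reagent, read after 1 h at ambient temperature.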
* marks the source's active call; other numbers are inactive results; ? = inconclusive; nt = not tested or not shown; [ ] = remark or other dose.

Below each SMILES – D2 potentiator, TRPML1 ag, PINK1 expr mod, CtBP-E1A inh, Six1-Eya2 blk, D2 agonist
CCOC(=O)c1cnc2c(OC)cccc2c1Oc1ccccc1
    3.8, nt, 2.5%, 8.9, 3.1, -1.2
O=C(CN1CCN(Cc2ccccc2)CC1)Nc1ccc(F)c(F)c1
    -40.8, nt, 2.0%, nt, 5.7, -2.5
O=C(COC(=O)Cn1cnc2ccccc21)Nc1cccc2c1C(=O)c1ccccc1C2=O
    11.3, 0.3, 14.2%, -12.8, -13.9, 0.3
O=C(CSc1ncn[nH]1)Nc1ccnc2ccccc12
    8.5, -0.6, -0.5%, 5.6, 2.9, -3.9
CN1CCN(CC(=O)Nc2ccc(S(=O)(=O)N(C)C)cc2)CC1
    -4.9, -0.7, 2.6%, 1.3, -1.2, -1.2
CSc1cccc(NC(=O)Nc2ccccc2C(N)=O)c1
    -18.6, -0.1, 0.7%, nt, -1.4, -0.4
COc1ccc(CNC(=O)Nc2ccc(C)c(C)c2)cc1
    -16.6, 1.5, 1.5%, nt, 4.6, 1.1
O=[N+]([O-])c1ccc(CN2CCN(Cc3c[nH]c4ccccc34)CC2)cc1
    -12.7, -0.2, -0.5%, -4.9, -17.3, -1.0
C=CCC[C@@H](Cc1ccc(F)cc1)C(=O)OC[C@@H](C)NC(=O)[C@@H](CC=C)CC(=O)N[C@H](CO)Cc1ccccc1
    3.5, 0.8, 6.0%, -4.9, -17.7, -0.4
CSc1ccccc1NC(=O)CN(C)C(=O)Cc1c[nH]c2ccccc12
    -0.3, 1.9, -2.7%, -5.2, 1.1, -0.5
Cn1cc(Br)c(C(=O)n2cc(Br)cn2)n1
    -2.3, -0.7, 2.6%, 5.9, 6.1, -3.7
CCCc1cc(=O)oc2c3c(c4c(c12)OC(C)(C)C=C4)OC(C)C(C)C3O (stereo not drawn)
    2.1, 2.2, -0.3%, 22.2, 15.1, 0.6
COc1ccc(-c2nnc(SCC(=O)Nc3cccc(Cl)c3)o2)cc1
    -10.3, 0.1, ?, 5.4, 6.9, 0.6
CC(C)C1Oc2ccccc2N(CC(=O)N(C)C2CCCCC2)C1=O (stereo not drawn)
    0.1, 0.8, 0.2%, -21.9, -4.0, 6.9
OCC[C@@H]1C[C@@H](O)[C@H](O)[C@@]2(CCCCO2)O1
    -3.4, 0.3, 0.6%, 3.3, 3.4, -4.3
COc1ccc(/C=C/C(=O)OCCNC(=O)c2ccncc2)cc1OC
    -6.5, 0.3, 1.2%, -3.5, 10.5, 2.3
COc1ccc(NC(=O)NNC(=O)c2cc3ccccc3cc2O)cc1
    -9.0, -0.5, -0.1%, 2.4, 2.3, -1.8
Cc1cc(C)c(NC(=O)Nc2ccccc2)c(C)n1
    -2.0, 0.6, 2.1%, -3.8, 3.0, 0.0
O=C(COC(=O)c1ccccc1SCC(=O)N1CCCC1)NC1CCS(=O)(=O)C1 (stereo not drawn)
    -2.0, 0.1, -0.5%, -10.2, 12.1, 3.6
Cc1ccc2c(c1)-c1c(cnn1CC(=O)Nc1ccccc1N1CCN(C)CC1)CO2
    -14.0, 0.0, 0.8%, -3.0, 0.7, -4.9
O=C(Nc1ccccc1N(C(=O)c1ccco1)S(=O)(=O)c1cccs1)c1ccco1
    -8.2, 0.9, 1.0%, -1.4, 1.3, -2.9
Cc1c(OCc2ccccc2)c(=O)ccn1Cc1ccccc1
    -11.9, 0.5, -1.2%, 0.9, -2.1, -4.1
CCOc1ccc(NC(=O)CCC(=O)O)cc1
    -0.7, -0.4, -0.8%, -1.7, -1.2, -1.7
C=CCSc1nc2sc(C)c(C)c2c(=O)n1CC=C
    -22.8, 0.7, 1.1%, 11.8, 12.5, -4.5
CCn1c(=S)sc2c(=O)n(CC(=O)Nc3ccccc3)c(C)nc21
    -9.8, -0.4, 1.3%, -1.0, 0.3, -0.1
CN(C)CCCCOc1ccc(Br)cc1Cl
    -14.9, 0.4, 0.6%, 0.3, 4.6, -0.8
CCCc1nc2ccc(NC(=O)c3ccco3)cc2c(=O)n1Cc1ccc(Cl)cc1
    -6.4, 2.8, 3.8%, -5.2, -16.8, -3.1
O=CNC(=O)c1ccccc1C(=O)O
    2.8, 0.2, -0.7%, 7.7, 1.0, -5.5
COc1ccc(S(=O)(=O)N2CCNCC2)cc1OC
    -1.3, 0.4, -1.0%, 5.1, -0.6, 1.0
Cc1cc(C)cc(NS(=O)(=O)c2ccc3[nH]c(=O)ccc3c2)c1
    -1.4, 1.6, -0.6%, 2.8, -1.5, 4.8

Complete entries as entered above.
Shown for `Cc1cc(C)cc(NS(=O)(=O)c2ccc3[nH]c(=O)ccc3c2)c1` → D2 potentiator: -1.4; TRPML1 ag: 1.6; PINK1 expr mod: -0.6%; CtBP-E1A inh: 2.8; Six1-Eya2 blk: -1.5; D2 agonist: 4.8
Shown for `Cc1c(OCc2ccccc2)c(=O)ccn1Cc1ccccc1` → D2 potentiator: -11.9; TRPML1 ag: 0.5; PINK1 expr mod: -1.2%; CtBP-E1A inh: 0.9; Six1-Eya2 blk: -2.1; D2 agonist: -4.1

Other entries
Below each SMILES – D2 potentiator, TRPML1 ag, PINK1 expr mod, CtBP-E1A inh, Six1-Eya2 blk, D2 agonist
Cc1ccc(Cl)cc1N1CCN(Cc2cc3c(cc2O)CCC3)CC1
    -6.4, 0.2, nt, -4.2, 3.1, -1.1
CN1/C(=C\C(=O)COC(=O)c2ccc(O)cc2)C(C)(C)c2ccccc21
    -8.1, 1.8, 1.0%, nt, -3.1, -0.3
Cc1occc1C(=O)Nc1cc(C(F)(F)F)ccc1Cl
    -4.0, 1.7, -2.9%, 6.0, 4.9, -1.4
CCC[C@H]1CN(c2ccc(Br)cc2)C(=O)[C@@H]1CC(=O)NC
    3.5, -0.7, 0.0%, 6.0, 6.6, -6.5
O=C(NCc1ccccc1)C1=C[C@@H](c2csc3ccccc23)C[C@@H](OCCCCO)O1
    -7.4, 1.3, -1.3%, 2.9, -5.1, -2.8
Cc1ccc(C(=O)N(C)CC(=O)Nc2ccc(N3CCOCC3)cc2)s1
    1.8, 0.6, 0.9%, -3.4, 2.9, -1.7
C=CCC(NCc1ccco1)c1ccc(OC)c(OC)c1 (stereo not drawn)
    -8.9, -0.7, 1.1%, 1.9, -0.4, 0.2
CCCCn1c(=O)[nH]c2ccccc21
    -2.7, -0.8, 1.1%, 4.2, 0.3, -0.3
Cc1ccc(S(=O)(=O)N2CCC(=O)N(C(COCc3ccc(C(F)(F)F)cc3)Cc3ccccc3)CC2)cc1 (stereo not drawn)
    -8.3, 11.5, -0.3%, 4.0, 0.6, 1.1
Cc1nc(C(C)NC(=O)c2cc(COc3ccc(F)c(F)c3)on2)cs1 (stereo not drawn)
    -7.8, 2.3, 3.0%, 5.4, -4.8, 1.0
COc1ccccc1NC(=O)/C(=C\c1cccnc1)NC(=O)c1ccccc1
    -9.9, -0.4, 1.0%, -4.4, 3.7, -1.9
CCC(=O)N1CCc2cc(S(=O)(=O)N3CCN(C(=O)c4ccco4)CC3)ccc21
    -4.3, -1.1, -1.0%, -4.4, -13.3, -1.2
Cc1ccc2[nH]c3c(c2c1)CCCC3NCCO (stereo not drawn)
    -32.4, 0.2, 1.7%, -8.2, -12.4, -1.4
CCCc1cc(=O)[nH]c(SCC(=O)c2cc(C)n(C3CC3)c2C)n1
    4.3, 1.1, -3.7%, -5.4, -14.2, -0.1
Cc1cc(-c2ccc(S(=O)(=O)N3CCN(c4cccc(C)c4C)CC3)s2)on1
    -0.2, -0.8, 0.9%, nt, 3.3, 0.1
O=S(=O)(c1ccc(Cl)cc1)N1CCN(C(=S)NCC2CCCO2)CC1 (stereo not drawn)
    -5.5, 0.7, ?, 17.9, 1.8, -3.3
CCCCOP(=O)(c1ccc(N(C)C)cc1)C(O)c1ccc(C(C)C)cc1 (stereo not drawn)
    -9.8, 4.4, 1.7%, -1.5, -3.6, -3.6
Cc1ccc(-n2nc3c(N4CCC(C(=O)N5CCCCCC5)CC4)nnc(C)c3c2C)cc1
    -9.4, 2.7, -1.0%, nt, -2.6, -6.3
Cc1ccnc(NC(=O)c2ccc([N+](=O)[O-])o2)c1
    ?, 0.5, -0.7%, -2.5, 0.4, 5.4
S=C(c1ccc(-c2cccc(Cl)c2)o1)N1CCOCC1
    3.4, 0.4, ?, ?, ?, 1.5
COc1ccc(C(O)c2nc(-c3ccoc3)cs2)cc1 (stereo not drawn)
    -5.1, -1.0, -0.6%, 4.7, -6.4, -1.7
CCOc1ccccc1OCCCC(=O)N(C)CC(=O)Nc1cc(C)ccc1C
    -9.4, -1.9, 6.2%, 0.0, -0.4, -1.3
N#CC1(C#N)CC(C=O)=C(N)C1(C#N)CC(=O)C12CC3CC(CC(C3)C1)C2 (stereo not drawn)
    6.2, 0.1, 6.0%, 4.7, -1.8, 2.6
O=C1NC[C@H](Cc2ccc(O)cc2)N(C[C@@H]2CCCN2C[C@H](Cc2ccccc2)N2C[C@H](Cc3ccccc3)N(CC3CCCCCC3)C(=O)C2=O)C1=O
    nt, -0.4, 1.3%, 1.9, 3.1, nt
CC1=C(C(=O)N2CCOCC2)CC(CC(=O)NCCCCc2ccccc2)C(=O)N1CCCN1CCCC1=O (stereo not drawn)
    10.1, -0.5, -1.3%, 3.0, 3.6, -2.0
Cc1ccccc1CN1CCN(S(=O)(=O)c2ccc(F)cc2)CC1
    -18.1, 2.6, -0.9%, 9.8, 4.5, -1.4
Cc1c([N+](=O)[O-])c([N+](=O)[O-])nn1CC(=O)NCCc1ccccc1
    11.6, 1.1, -0.7%, 0.3, 3.3, 5.1
CN(C)S(=O)(=O)N1CCN(c2ccc([N+](=O)[O-])c(N3CCOCC3)c2)CC1
    -7.0, 0.7, -0.9%, -24.2, -2.8, -0.1
Cc1cc2ccccc2n1CCC(=O)O
    -3.8, 0.1, 1.3%, 0.5, 6.5, -2.4
O=C(CN1C(=O)CSc2ccccc21)N/N=C/c1ccco1
    -4.5, -0.3, -0.7%, 0.8, 0.1, -2.6
Cc1cccc(N(CC(=O)NC(C)C)C(=O)CCC(=O)Nc2nccs2)c1
    -9.2, -0.7, -0.4%, 10.5, 3.4, -5.0
O=C(Nc1nc2ccccc2[nH]1)c1ccc([N+](=O)[O-])cc1
    -2.4, -0.4, 11.8%, 4.6, 0.6, 7.7
COc1ccccc1OC1OC2COC(c3ccco3)OC2C(O)C1NC(C)=O (stereo not drawn)
    -13.0, 0.2, 2.4%, -0.1, 6.1, 2.0
O=C(c1ccc(S(=O)(=O)Nc2ccc(F)cc2)cc1)N1CCN(C(=O)c2ccco2)CC1
    -4.1, 1.8, -0.7%, 1.3, -2.6, -0.9
CC(C)CC(=O)Nc1ccc2c3c(cccc13)CC2
    -0.9, -0.9, 0.4%, 4.4, -2.3, -0.2
CCCCNS(=O)(=O)c1ccc(NC(=O)c2cccs2)cc1
    -5.7, 2.1, 0.2%, -2.4, -3.8, 0.4
CCCn1c(SCC(=O)c2cc(OC)ccc2OC)nc2c1c(=O)n(C)c(=O)n2C
    5.4, -0.7, 1.9%[38.3 µM], 2.5, 0.2, -0.8
C/C(=N/NC(=O)NC12CC3CC(CC(C3)C1)C2)c1ccccc1
    0.3, -0.4, 3.2%, nt, -5.3, 2.0
O=[N+]([O-])c1ccc(-c2nc(Nc3cccc(O)c3)c3ccccc3n2)cc1
    2.6, 1.3, 9.9%, nt, -19.7, 11.6
